NPYLR7 agonist: mosquito NPYLR7 agonism | hit rate 0.15% among 270,000 | AID 1259423 | activation, % at 10 µM | HEK293T NPYLR7/Galpha15, GCaMP6s calcium fluorescence; in the data active = activation above about 40%;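 note: 0% = vehicle and 100% = reference agonist at the receptor; some compounds past the cut are filed as inactive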
NPYLR7 agonist max-min: also measured in NPYLR7 agonist; calls as there; activation, %; measured here: Max-Min RFU normalised activation; some inactives read as strong as hits;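 span of the calcium signal over five minutes; 0% = vehicle and 100% = native peptide agonist; compound fluorescence can raise it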
* hit, by the source's call; & = joins results of further samples. Some of the compounds tested; count on the stated rates, not on these rows.

Second line of a record: NPYLR7 agonist, NPYLR7 agonist max-min
Cc1nn(C)c(C)c1NC(=O)c1cc2ccccc2[nH]1
→ -2.4, -2.3
CC(=O)Nc1ccc(Cl)c(-c2n[nH]c(CCc3ccccc3)n2)c1
→ -1.8, -5.6
CCn1cc(CN2CCN(C)C3(CCN(C(=O)c4ccco4)CC3)C2)cn1
→ -4.8, -7.4
CC(=O)NCc1ccc(C(=O)N2CC(C)(C)Sc3ccccc32)o1
→ 8.6, 6.0
O=C1NCCCC1C(=O)N1CCN(C(=O)c2ccco2)CC1 (stereo not drawn)
→ 0.8, -4.0
O=C(CN1C(=O)c2ccccc2C1=O)Nc1ccccc1
→ -12.8, -14.3
O=C(CCC1CCN(C(=O)C2=CCCCC2)CC1)N1CCC(Cc2ccccc2)CC1
→ 3.2, -1.0
O=C(N=Nc1c(O)[nH]c2ccccc12)c1ccc(O)cc1
→ -4.1, -6.8
O=C(C1CCOCC1)N1CCCC(CCc2cccc(F)c2)C1 (stereo not drawn)
→ 4.0, -0.6
O=C(NCCNc1cccc2ccccc12)c1ccc(Nc2cccc(C(F)(F)F)c2)nc1
→ -5.6, -14.2
CC1(C(=O)NS(=O)(=O)Cc2ccccc2)CCN1C(=O)C/C=C/c1ccccc1 (stereo not drawn)
→ 0.4, -0.9
CCn1c(SCc2ccc(C(=O)NCC(C)C)cc2)nnc1-c1cccs1
→ -4.7, 1.0
Cc1cn2nc(N3CCOC(Cn4nc(C)nc4C)C3)sc2n1 (stereo not drawn)
→ 13.0, 6.1
CCN(CC)C1=C(c2c(C)[nH]n(-c3ccc(F)cc3)c2=O)C(=O)N(c2ccc(OC)cc2OC)C1=O
→ -14.6, -7.3
CCn1cc(CNc2nc(-c3ccc(Cl)cc3)nc3c2CNC3)cn1
→ 15.3, 3.4
CNC(C)(C)C(=O)NCC1CCN(Cc2ccc(C)c(F)c2F)C1 (stereo not drawn)
→ 1.7, -4.5
COCCN(CC(=O)Nc1nc(CC(=O)Nc2ccccc2F)cs1)C(=O)c1ccco1
→ -11.9, -3.7
O=C(Cn1nc(C2CC2)cc1C(=O)N1CCCC1)N1CCN(c2ccc(Cl)cc2)CC1
→ -10.4, -13.7
CCOC(=O)C1CSC(Cc2ccc(OCc3ccc([N+](=O)[O-])cc3)cc2)N1 (stereo not drawn)
→ 6.9, -2.0
CC(C)[C@@H]1C[C@@H]2C[C@H](N(CC(=O)O)C(=O)Cc3cccs3)C[C@@H]2CO1
→ 5.0, 5.3
Clc1ccc(-c2noc(CSc3nnc(C4(c5ccc(Cl)cc5)CCC4)o3)n2)cc1
→ -8.0, -15.1
COc1ccc(OC)c(S(=O)(=O)N2CCC(c3nc(-c4ccccc4Cl)no3)CC2)c1
→ 11.3, 8.0
Cc1c(C(C)NC(=O)CCc2ccc(Br)cc2F)cnn1C (stereo not drawn)
→ 7.4, 4.9
O=C(NCCCN1CCCC1=O)c1ccccc1F
→ -6.2, -10.4
O=C(NCc1cccnc1)[C@H]1C[C@@H](O)[C@H](O)[C@@H]2N=C(Nc3cccc4ccccc34)S[C@@H]21
→ -10.8, -17.0
Cc1nc2c(=O)n(CC(=O)NCCc3ccccc3)nc(-c3ccc(F)cc3)c2s1
→ 2.3, -2.2
CN(C)C(=O)c1ccc(Cl)cc1NS(=O)(=O)c1cccc(F)c1
→ 8.1, 7.4
Cc1cccc(OC(C)C(=O)NCc2ccc3c(c2)OCO3)c1 (stereo not drawn)
→ -2.9, -6.4
CCc1cc(Br)ccc1S(=O)(=O)N1CCC(c2c[nH]c3ccc(C)cc23)CC1
→ -12.1, -0.8
COc1ccccc1Oc1cnn(C)c(=O)c1Nc1cccc(C(=O)NCCN2CCOCC2)c1
→ 4.1, 12.3
NC(N)=N/N=C\c1cc(=O)[nH]c(=S)[nH]1
→ -2.7, -3.9
O=C(c1cnn2cc(CCO)cnc12)N1CCCC(CCc2ccccc2)C1 (stereo not drawn)
→ 7.8, 6.4
Cc1ccc(Cn2ccnc2CN(C(=O)NC(C)C)C2CC2)cc1
→ 3.7, 4.0
CCSc1sc(CCN(CC)CC)cc1/C=N\O
→ 2.3, -1.0
CN(Cc1cnn(Cc2ccccc2)c1)C(=O)c1cc(F)cc(F)c1
→ 5.4, 3.2
c1ccc2c(c1)CCN(C1CCCN(Cc3cn[nH]c3C3CCCCC3)C1)C2 (stereo not drawn)
→ 2.0, 1.8
O=C1CSC(=NNC(=S)NCc2ccco2)N1
→ -2.7, -1.5
Nc1ccc2nc(-c3ccc4nc(N)sc4c3)[nH]c2c1
→ -2.3, -5.4
O=C(c1cnsn1)N1CCCC(N2CCN(Cc3ccc4c(c3)OCO4)CC2)C1 (stereo not drawn)
→ 17.8&10.1, 7.0&8.4
COc1cccc(Cc2nsc(N(CCC(=O)NCCN3CCOCC3)C(C)C)n2)c1
→ 3.7, 2.5
O[C@]12CCCC[C@H]1CN(Cc1ccc(-n3cncn3)cc1)CC2
→ 4.1, 2.9
CCCCCOc1ccc(S(=O)(=O)N(C)C)c2ccccc12
→ -1.5, 0.5
Fc1cccc(C2CCCCN2Cc2nc(-c3ccccc3)no2)c1 (stereo not drawn)
→ 16.1, 5.3
Cc1ccc(C2(O)CCN(C(=O)C(c3ccccc3)n3cnnn3)CC2)nc1 (stereo not drawn)
→ 5.2, -7.5
CCc1ncc(C(=O)N2CCCC(O)(CO)CC2)cn1 (stereo not drawn)
→ 8.2, 3.4
O=C(Nc1cccc(C2SCC(=O)N2c2ccc3c(c2)OCO3)c1)c1ccc(Br)cc1 (stereo not drawn)
→ 21.3, 14.7
COc1ccc2c(c1)CCc1cc(CCC(=O)NCc3cccs3)n(CCc3cccc(F)c3)c1-2
→ 0.6, 0.8
Nc1nc(Cl)nc2c1ncn2[C@H]1C[C@H](O)[C@@H](CO)O1
→ -2.1, -4.6
Cc1nnc(NC(=O)CSc2nc(-c3ccccc3)nc3c2c(=O)n(C)c(=O)n3C)s1
→ 9.3, 10.9
CC(NC(=O)C(C)N1CCc2sccc2C1C)c1ccc(F)cc1 (stereo not drawn)
→ 0.0&5.5, -1.1&3.9
CCCN1CCN(c2nc3c(c(=O)[nH]c(=O)n3C)n2Cc2ccc(Cl)c(Cl)c2)CC1
→ 1.5, -3.0
CN(C)S(=O)(=O)c1cccc(NC(=O)C2CC3CCC2C3)c1 (stereo not drawn)
→ 7.2, 6.4
Cc1ccccc1OCC1CCCN(CCC(F)(F)F)C1 (stereo not drawn)
→ 20.7, 9.8
COCCN(CCC(=O)Nc1ccc(OC)cc1)c1nc(C2CC2)nc2cc(Cl)ccc12
→ -4.2, 5.0
CCCCCc1ccc(C(=O)N2CCC3(CC2)C(=O)N(CC(=O)NCc2cccc(C(F)(F)F)c2)CN3c2ccccc2)cc1
→ 0.3, 17.8
COCCCn1c(SCC(=O)c2cccc(F)c2)nnc1-c1cc(-c2ccccc2)nc2ccccc12
→ 4.1, -0.2
COCCN(Cc1c(-c2ccc(F)cc2)noc1N1CCN(C)CC1)C(=O)C1CC1
→ -5.1, -3.5
CCOCCOc1c(Cl)cccc1NC(=O)NCc1ccccn1
→ 0.4, 16.7
COc1ccc(NC(=O)N2CCN(c3cc(Cl)nc(SCC(=O)NCCN4CCCC4)n3)CC2C)cc1 (stereo not drawn)
→ -1.4, 12.1
CCc1nc2sc3c(NCC4CCCO4)ncnc3c2c2c1CCCC2 (stereo not drawn)
→ 3.4, -0.5

Further records follow:
Second line of a record: NPYLR7 agonist, NPYLR7 agonist max-min
CCC(=O)O[C@H]1CCC2C3CCc4cc(O)ccc4C3CC[C@@]21C (stereo partly drawn)
→ -13.3, -18.8
COCCNC(=O)c1ccccc1N1CCC(NC(=O)Nc2ccccc2)CC1
→ 21.2, 29.3
CC(C)c1ccc(S(=O)(=O)N2CCC(CCc3ccccc3)CC2)cc1
→ 18.0, 8.1
CC(C)CC(C)NC(=O)c1csc(COC(=O)c2ccccc2)n1 (stereo not drawn)
→ -5.9, -9.0
BrC(/C=N\n1cnnc1)=C\c1ccccc1
→ 23.7, 19.2
COc1cccc(-c2cc(-c3ccc(C(=O)NCCc4cccs4)cc3)[nH]n2)c1
→ -3.4, 4.1
Cc1[nH]cnc1CSCCNC(=O)[C@@]12CNC[C@@H]1CN(C)C2
→ -3.6, 0.1
CSC1CCC(NC(=O)N2CCC(CO)CC2)C1 (stereo not drawn)
→ 1.1, -3.2
CCCCCCc1cc2cc(-c3nnc(-c4ccc([N+](=O)[O-])cc4)o3)c(=O)oc2cc1OC(C)=O
→ -6.5, -5.7
Cc1c(C(=O)NCc2cccc([N+](=O)[O-])c2)sc(=O)n1Cc1ccc(C(F)(F)F)o1
→ 10.4, 2.1
CC(C)(C)NC(=O)CC1(C(=O)O)CCCC1
→ -1.6, 5.8
O=C(Nc1ccc(-c2nc3ccccc3o2)cc1)C1CCCN1C(=O)C1CC1 (stereo not drawn)
→ 7.2, 5.3
CCc1cccc2c(C(CC(=O)NCCc3ccccc3)c3ccc(C)cc3)c[nH]c12 (stereo not drawn)
→ 26.4, 36.8
CCCCNc1oc(-c2ccc(COc3ccc(Cl)cc3)o2)nc1C#N
→ 4.0, 25.5
CC(C)c1ccc(C2SCCN2C(=O)Nc2cccc(Cl)c2)cc1 (stereo not drawn)
→ 16.5, 20.8

Continued, starting with the last 6 of the part before.
Second line of a record: NPYLR7 agonist, NPYLR7 agonist max-min
Cc1c(C(=O)NCc2cccc([N+](=O)[O-])c2)sc(=O)n1Cc1ccc(C(F)(F)F)o1
→ 10.4, 2.1
CC(C)(C)NC(=O)CC1(C(=O)O)CCCC1
→ -1.6, 5.8
O=C(Nc1ccc(-c2nc3ccccc3o2)cc1)C1CCCN1C(=O)C1CC1 (stereo not drawn)
→ 7.2, 5.3
CCc1cccc2c(C(CC(=O)NCCc3ccccc3)c3ccc(C)cc3)c[nH]c12 (stereo not drawn)
→ 26.4, 36.8
CCCCNc1oc(-c2ccc(COc3ccc(Cl)cc3)o2)nc1C#N
→ 4.0, 25.5
CC(C)c1ccc(C2SCCN2C(=O)Nc2cccc(Cl)c2)cc1 (stereo not drawn)
→ 16.5, 20.8
COCCn1c(SCC(=O)Nc2ccc(F)cc2)nc2c([nH]c3ccccc32)c1=O
→ -3.5, -2.8
Cc1cc(NC2CCCC(C(F)(F)F)C2)n2ncnc2n1 (stereo not drawn)
→ -5.4&-2.4, -6.0&-2.7
CCN(CC)S(=O)(=O)c1ccc(OC)c(N2CCN(C(=O)CCC(=O)OC)CC2)c1
→ 2.7, 1.1
CCCC(C)CN1CCC(n2cc(C3CC3)nn2)CC1 (stereo not drawn)
→ 0.3, 0.2
Cc1ccccc1C(=O)N1CCN(c2cc(Oc3ccc(F)cc3Cl)ncn2)CC1
→ 8.2, 6.9
CNC(=O)NC(=O)C(OC(=O)CNC(=O)c1ccc(Oc2ccccc2)cc1)c1ccccc1 (stereo not drawn)
→ -0.6, 6.1
CCn1ccnc1CN1CCCC(C(=O)Nc2ccccc2-c2ccc(OC)cc2)C1 (stereo not drawn)
→ -11.2, -9.2
CCN(CC)c1ccc(C(=O)NCC2CCN(C)C2)cc1 (stereo not drawn)
→ 1.5, 1.0
Cc1ccc(S(=O)(=O)Nc2ccc(Nc3ccc(-n4cccn4)nn3)cc2)c(C)c1
→ -5.0, -10.9
COc1ccc(CN(C)C(=O)CN2CCN(CCO)CC2)cc1
→ 2.5, 5.5
COc1cc(C=NN=Cc2cc(OC)c(O)c(OC)c2)cc(OC)c1O
→ -3.8, -7.7
CCOc1coc(C(=O)Nc2cccc(C)c2C)cc1=O
→ 12.8, 3.1
CC(C)N(Cc1ccccc1)C(=O)CSc1nc2cc(Cl)ccc2c(=O)n1CC1CCCO1 (stereo not drawn)
→ -1.4, -2.6
Cc1ccsc1/C=C/c1n[nH]c(=O)c2ccccc12
→ -19.8, -21.8
Cc1ccc(OCC2c3ccsc3CCN2C(=O)CN(CC2CCCO2)C(=O)Cc2ccccc2)c(C)c1 (stereo not drawn)
→ -1.3, 5.0
O=c1nc2n(c3c(Br)cc(Br)cc13)CCS2
→ -1.8, -2.4
Cc1csc(CNC(=O)c2c(C)noc2C(C)C)n1
→ -0.6, -1.5
Cc1ccc2oc(-c3ccc(Cl)c(NC(=O)c4cccc(Cl)c4)c3)nc2c1
→ -3.9, -9.9
O=c1cc2ncc(-c3[nH]ncc3[N+](=O)[O-])cn2[nH]1
→ 11.7, 14.8
CN(C)CCC1CN(C(=O)c2ccc(Cl)c(F)c2)CCO1 (stereo not drawn)
→ 2.2, 1.1
C1=CCC(c2nccn2CCn2cccn2)CC1 (stereo not drawn)
→ -0.5, -7.4
CCn1c(=S)[nH]c2sc(C)c(C)c2c1=O
→ -8.5, -13.1
O=C(c1ccc(C(F)(F)F)cc1)N1CCCC(OCc2ccc(Br)cc2)C1 (stereo not drawn)
→ -7.7, -3.9
O=C1c2ccc([N+](=O)[O-])cc2C(=O)N1CNc1ccc2c(c1)oc1ccccc12
→ 6.9, 5.5
CCCCCCCCC(=O)N1CCN(C(=O)CCN2CCc3sccc3C2c2ccccc2)CC1 (stereo not drawn)
→ 7.7, -0.9
CCOc1ccccc1NC(=O)Cn1nnc(C(=O)Nc2ccc(Br)cc2)c1N
→ -12.3, -17.7
CC(C)(Oc1ccc(Cl)cc1)C(=O)OCCNC(=O)c1cccnc1
→ -5.0, -20.1
O=C(Cc1cc(=O)[nH]c(SCC(=O)Nc2ccccc2F)n1)NCc1cccs1
→ -15.8, -18.4
CC(=O)NCC(=O)NCc1nc(Cc2ccc(Cl)cc2)no1
→ 13.0, 9.1
CCOc1ccc(NC(=O)NCCN2CCCCCC2)cc1
→ -6.7, -8.7

Fetched one by one from the entries so far:
Second line of a record: NPYLR7 agonist, NPYLR7 agonist max-min
Cc1csc(CNC(=O)c2c(C)noc2C(C)C)n1
→ -0.6, -1.5
CN(C)CCC1CN(C(=O)c2ccc(Cl)c(F)c2)CCO1 (stereo not drawn)
→ 2.2, 1.1

Next part
Second line of a record: NPYLR7 agonist, NPYLR7 agonist max-min
FC(F)(F)c1cc(Cl)c2nc(CSC3CCCCC3)cn2c1
→ 0.3, 0.3
CC1c2cccn2CCN1C(=O)c1ccc(Cn2ccnc2)o1 (stereo not drawn)
→ -1.0, -4.2
Cn1c(SCc2nc3ccccc3o2)nnc1C(F)(F)F
→ 6.7, 12.3
CC(C)N(CCNC(=S)Nc1cccc(C(F)(F)F)c1)C(C)C
→ -3.5, -8.8

Source: PubChem (Fisher Drug Discovery Resource Center)
